TRPV1 PAM = potentiators of human vanilloid receptor 1 (TRPV1). potentiation, % at 8.33 µM. 0.02% of 320,000 active. TRPV1-expressing cells, Fluo-8 calcium influx, capsaicin EC20 potentiation; host cell line not named in the record; control for the full effect not named in the record. Q8NER1; active means potentiation above 80%; inconclusive means 30% to 80%; inactive means below 30%; also: 0% is about no effect
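TRPV1-expressing cells were cultured overnight at 35.5C and loaded with Fluo-8 calcium dye for 40 to 90 min at room temperature. After a 10 s baseline, compound was added and calcium influx was read kinetically for 3 min (ex 480/em 520 nm).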
Six1-Eya2 inh = inhibitors of human Six1/Eya2 interaction; activity change, % (test concentration not listed); AlphaScreen GST-Six1/His-Eya2 binding, biochemical; hits give low values; control for the full effect not named in the record; AID 651725; Q15475+O00167; 0.56% of 360,000 active; in the data active = activity change below about -65%; inconclusive = about -30% to -65%; inactive = above about -30%; also: % is scaled to controls: 0 for no effect and ±100 for the full control effect; compound concentration not given in the record
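Compounds are tested against tagged Six1 and Eya2 proteins bridged by glutathione donor and nickel acceptor beads; after a one-hour incubation at 37 °C without light, AlphaScreen emission is recorded.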
CtBP-E1A inh = blocks the CtBP interaction with E1A; 0.49% of 340,000 active; AlphaScreen GST-E1A/His-CtBP binding, 1536-well; hits give low values; control for the full effect not named in the record; activity change, % (test concentration not listed); in the data active means activity change below about -65%; inconclusive means about -30% to -65%; inactive means above about -30%; also: % is scaled to controls: 0 for no effect and ±100 for the full control effect; compound concentration not given in the record
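GST-E1A and His-tagged CtBP (125 nM each as 5X stock) were preincubated with pin-transferred compound for 2 h at 37 °C in the dark, then glutathione donor and nickel acceptor beads were added for 1 h before AlphaScreen reading.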
PINK1 modulator = changes PINK1 expression; PINK1 immunofluorescence, high-content cytometry, 24 h; AID 624263; Potency, µM (series often up to 76.6 µM), without a hit: top-dose activation (PINK1 increase), usual class: activators; 0.2% of 410,000 active; active = well fitted activation curve with a large enough effect; inconclusive = small, poorly fitted or top-dose-only effect; inactive = flat fitted curve, though single readings scatter; cell line not stated here;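 also: potency is read from the fitted curve at half-maximal effect; % of control where 0% means no effect; nearly all actives have a fitted effect of over 65% in size; a mitochondrial uncoupler was the plate control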
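Compound titrations (5 concentrations, 24 h) on a stable cell line; DMSO and CCCP controls. Endpoint: fixed-cell PINK1 immunofluorescence with mitochondrial, cell and nuclear markers, scanned by microplate cytometer.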
D2 ag = human D2 receptor agonism in beta-arrestin assay; P14416; DiscoveRx PathHunter D2 beta-arrestin, luminescence, 90 min; 100% = 57 uM dopamine signal; activation, % (no concentration beside the values); 0.084% of 360,000 active; AID 624465; in the data active = activation above about 40%; inconclusive = about 15% to 40%; inactive = below about 15%; also: compound concentration not given in the record; the text of the record calls up to 30% inactive
Target sequence (P14416 whole entry, looked up): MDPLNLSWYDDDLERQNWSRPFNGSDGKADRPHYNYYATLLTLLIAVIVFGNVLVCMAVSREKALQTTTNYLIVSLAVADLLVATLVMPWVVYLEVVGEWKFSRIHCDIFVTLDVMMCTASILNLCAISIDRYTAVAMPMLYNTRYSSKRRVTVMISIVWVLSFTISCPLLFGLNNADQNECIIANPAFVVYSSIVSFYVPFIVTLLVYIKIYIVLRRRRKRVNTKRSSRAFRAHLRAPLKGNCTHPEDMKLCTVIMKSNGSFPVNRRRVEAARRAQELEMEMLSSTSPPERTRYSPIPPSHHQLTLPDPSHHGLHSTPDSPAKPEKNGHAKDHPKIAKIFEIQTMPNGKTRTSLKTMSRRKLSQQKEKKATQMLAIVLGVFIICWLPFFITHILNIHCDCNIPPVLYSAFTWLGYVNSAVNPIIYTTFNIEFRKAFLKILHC
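DiscoveRx PathHunter D2 beta-arrestin cells (2,100/well) attached overnight, then compound-stimulated 90 min at 37 C in HBSS/10 mM HEPES/0.1% Tween-20 buffer; beta-galactosidase complementation read by luminescence after 1 h at ambient temperature. Dopamine 57 uM final (EC100) as control.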
Sfp inh = blocks B. subtilis Sfp PPTase activity; 3.5% of 310,000 active; Q9F4F7; Potency, µM, for the others: max response, negative = inhibition, actives largely listed as inhibitors; Biochemical Sfp PPTase activity, qHTS; AID 1490; active = well fitted inhibition curve with a large enough effect; inconclusive = small, poorly fitted or top-dose-only effect, or another doubt; inactive = no such curve, though single readings can be large or run the other way;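 also: the enzyme is Sfp with the accession as filed and its product quenches rhodamine fluorescence; potency is read from the fitted curve at half-maximal effect; 0% = enzyme reaction without inhibitor and -100% = no enzyme wells; top concentration of the series not given in the record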
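Compounds were incubated with enzyme (final 15 nM) for 15 min at room temperature before substrate addition started the reaction. Fluorescence at 525 nm excitation, 598 nm emission was recorded immediately and after 30 minutes.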
D2 potentiator = positive allosteric modulators of human D2 dopamine receptor; potentiation, % (test concentration not listed); 0.23% of 360,000 active; P14416; DiscoveRx D2 beta-arrestin cells, luminescence, 90 min; 100% = 57 uM dopamine signal; active = potentiation of 50% or more; inconclusive = 30% to 50%; inactive = 30% or less;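 also: compound concentration not given in the record; tested on top of an EC20 dose of dopamine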
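PathHunter D2 cells, attached overnight at 37 deg C, received compound in DMSO plus dopamine at EC20 (50 nM final) for 90 min at 37 deg C. Beta-arrestin recruitment was read as luminescence after 1 h with detection reagent at ambient temperature.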
* = called active by the depositor; ? = inconclusive; . = not tested or not shown; [ ] = dose if it differs, or a comment. Rows were taken by chance (roughly 3.7% active in at least one column).

nr	smiles	Sfp inh	D2 ag	D2 potentiator	CtBP-E1A inh
1	C#CCNC(=O)C1=C[C@H](c2cn(C(C)=O)c3ccccc23)[C@@H](CCCO)[C@H](OCC)O1	15%	-3.3	-2	-6
2	O=C(NC(=S)N(CCCCO)C1CCCCC1)c1sc2ccccc2c1Cl	-5%	-7.3	-25	-12
3	CC1CCN(S(=O)(=O)c2ccc3c(c2)N(CC(=O)NCc2cccnc2)C(=O)CS3)CC1	-4%	0.8	-5	.
4	CC1CC(C)CN(C(=O)Cn2c(=O)c3cccn3c3cccnc32)C1 (stereo unspecified)	2%	-3.0	-6	-1
5	CCN(C[C@H]1N[C@@](CC)(C(=O)OC)[C@H]2C(=O)N(C)C(=O)[C@@H]12)S(=O)(=O)c1ccc(OC(F)(F)F)cc1	.	1.9	.	-4
6	O=C(O)C1=C2C(=O)Nc3cccc(c32)C2(C1)C(=O)Nc1ccccc12 (stereo unspecified)	.	-4.9	2	3
7	CCc1ccc(CN(C)C(=O)c2cc(COc3c(F)cccc3F)on2)cc1	-5%	-0.1	0	7
8	CC(Sc1ccc(S(=O)(=O)N2CCCCC2)cn1)C(N)=O (stereo unspecified)	.	1.2	-5	-3
9	COc1ccc2nc3sc(C(=O)N4CCN(C)CC4)cc3cc2c1	12%	-2.0	-7	-3
10	O=C(CSc1cccc[n+]1[O-])Nc1ccccc1Oc1ccccc1	40µM*	-7.4	-27	-5
11	CCC1CC(C(=O)O)CC(=O)N1 (stereo unspecified)	.	-6.3	-6	11
12	Cc1cccc(C)c1NC(=S)N(Cc1ccccc1)Cc1cccs1	9%	-1.4	-3	0

nr	PINK1 modulator	TRPV1 PAM	Six1-Eya2 inh
1	0.6%	-11	-1
2	4.3%[38.3 µM]	18	-18
3	5.1%	13	7
4	-0.8%	-5	1
5	0.6%	.	7
6	0.5%	.	-11
7	3.3%	0	17
8	-0.3%	.	-1
9	0.5%	1	-7
10	3.2%	1	6
11	0.1%	.	11
12	6.4%	1	1

Following part.
nr	smiles	Sfp inh	D2 ag	D2 potentiator	CtBP-E1A inh
13	O=C(COC(=O)Cn1cnc2ccccc2c1=O)NCc1ccccc1Cl	17%	1.8	-9	3
14	NC(=O)c1cc(-c2ccccc2)nc2ccc(Br)cc12	16%	-3.1	11	.
15	CCOC(=O)n1n[n+]([O-])c2ccccc21	4%	-2.1	-9	2
16	CC(O)c1ccc2c(c1)OCCOCCN(C)CCOCCO2 (stereo unspecified)	21%	-1.8	4	0
17	O=C(CSc1nc(-c2ccccc2Cl)ns1)Nc1ccc2c(c1)OCO2	-7%	-0.4	1	-4
18	CCOc1ccccc1Nc1ncccc1C(=O)O	10%	-3.8	-1	2
19	COc1ccc(CN(CC(=O)NCc2ccc(F)cc2)C(=O)c2ccco2)cc1	13%	-4.5	-9	0
20	Cc1ccc(NS(=O)(=O)c2cc3c(cc2C)NC(=O)CO3)cc1	10%	-6.6	-3	-2
21	NC(=O)c1ccsc1NC(=O)COC(=O)CSc1ccc(Cl)cc1	-8%	7.0	-6	-8
22	Cc1ccc(Cc2c(C3CCCCC3)nc3ccc(Cl)cn23)cc1	.	-5.5	-11	-3
23	Cc1ccc(SCc2nn(C)c(Cl)c2C=O)cc1	8%	-1.9	-8	6
24	O=C(N/N=C/c1ccccc1C(=O)O)C(=O)N1CCCCC1	17%	0.0	-3	8

nr	PINK1 modulator	TRPV1 PAM	Six1-Eya2 inh
13	0.5%	-10	4
14	2.9%	?	0
15	0.2%	0	2
16	-2.9%	0	6
17	12%	11	-5
18	-2.3%	-13	-3
19	-0.9%	-19	5
20	8.5%	-9	2
21	-0.2%	8	-2
22	?	.	2
23	-0.4%	3	4
24	-0.5%	3	9

Later entries.
nr	smiles	Sfp inh	D2 ag	D2 potentiator	CtBP-E1A inh
25	O=S(=O)(Nc1ccc(Cl)c(Cl)c1)N1CCOCC1	15%	5.3	-6	10
26	COc1ccccc1NC(=O)c1ccc(NC(=O)c2nc3nccc(C)n3n2)cc1	.	4.1	0	-4
27	CC(OC(=O)CCc1c[nH]c2ccccc12)C(=O)c1ccccc1 (stereo unspecified)	6%	-0.9	-9	-8
28	O=C(CN1CCN(S(=O)(=O)c2ccc(Br)cc2)CC1)N/N=C/c1ccc(Br)s1	3%	2.6	0	0
29	CCn1c(=N)n(CCO)c2ccccc21	1%	-0.9	-32	13
30	CCSCc1nnc(SCC(=O)Nc2cccc(C(C)=O)c2)n1C	-9%	-4.4	-9	-20
31	CCOC(=O)c1cnc2c(ccc3ccccc32)c1NCCCN(C)C	7%	1.9	-24	2
32	O=C(NCCN1C(=O)S/C(=C\c2ccccc2F)C1=O)C1CC(=O)N(Cc2ccccc2)C1 (stereo unspecified)	.	2.4	0	4
33	CCOc1ccc(NC(=O)CN(C)C(=O)c2ccc3nc(CC)c(CC)nc3c2)cc1OCC	.	-5.1	19	0
34	CSc1cccc(NC(=O)c2cnccn2)c1	0%	1.5	-5	0
35	CCCC(=O)N(c1ccc2oc(=O)sc2c1)S(=O)(=O)c1ccccc1	14µM*	4.4	-15	?
36	O=S1(=O)[C@H]2C[C@@H]3C=C[C@@]2(CN1Cc1ccc(Cl)cc1)O3	7%	0.9	1	38

nr	PINK1 modulator	TRPV1 PAM	Six1-Eya2 inh
25	-0.2%	-3	10
26	1.1%	1	-8
27	0.6%	13	0
28	-1.2%	-3	-7
29	-2.7%	-2	11
30	0.4%	-6	3
31	-1.3%	-15	0
32	1.9%	-28	0
33	2.9%	5	-16
34	-1.0%	0	6
35	-3.4%	13	-13
36	-0.1%	13	35

Following part.
nr	smiles	Sfp inh	D2 ag	D2 potentiator	CtBP-E1A inh
37	C/C(N)=C(/C#N)C(=O)CSc1ccc2c(c1)OCCO2	1%	-3.2	7	4
38	O=C(NCc1ccc2c(c1)OCO2)C1CCCN(S(=O)(=O)c2cccnc2)C1 (stereo unspecified)	-5%	-3.1	-1	-8
39	O=C(CSc1ccc(Br)cc1)N1CCN(C(=O)c2ccco2)CC1	3%	-0.9	-3	-3
40	Cc1ccc(C(=O)N/C(=C\c2cccs2)C(=O)N2CCCCCC2)cc1	4%	-2.9	4	-6
41	CCN1C[C@@H]2[C@@H]3C(=O)N(C)C(=O)[C@@H]3[C@](C)(C1=O)N2C(=O)c1ccc(F)cc1	.	-2.9	-2	7
42	Cc1ccc(NC(=O)COC(=O)Cc2ccsc2)c(C)c1	12%	-1.3	2	10
43	Fc1ccc(NC(=S)N2CCCCC2)cc1	-29%	0.9	-17	6
44	COC(=O)N(C)C[C@@H]1OCc2cn(nn2)CCCC(=O)N([C@H](C)CO)C[C@H]1C	.	-6.9	-5	-23
45	NC(=O)c1ccc(=O)n(C2OC(CO)C(O)C2O)c1 (stereo unspecified)	.	-2.1	2	-2
46	Cc1cc(C)n(S(=O)(=O)c2ccccc2)n1	7%	-2.2	-6	8
47	Cc1cccc(C)c1OCCCCCNCCO	1%	-1.3	-13	-25
48	COc1ccccc1C(CNC(=O)c1ccc(-c2ccccc2Cl)o1)N1CCCC1 (stereo unspecified)	.	-2.4	-69	-27

nr	PINK1 modulator	TRPV1 PAM	Six1-Eya2 inh
37	-0.7%	-11	9
38	-1.3%	8	2
39	-0.7%	-1	-4
40	0.7%	-5	8
41	0.5%	.	5
42	1.2%	4	-2
43	-1.1%	12	-5
44	5.2%	.	10
45	-7.0%	.	-4
46	1.5%	-1	15
47	-1.0%[38.3 µM]	-1	-1
48	-4.7%	3	-8

A different layout for some results above.
entry	SMILES	Sfp inh	D2 ag	D2 potentiator	CtBP-E1A inh	PINK1 modulator	TRPV1 PAM	Six1-Eya2 inh
33	CCOc1ccc(NC(=O)CN(C)C(=O)c2ccc3nc(CC)c(CC)nc3c2)cc1OCC	.	-5.1	19	0	2.9%	5	-16
34	CSc1cccc(NC(=O)c2cnccn2)c1	0%	1.5	-5	0	-1.0%	0	6
35	CCCC(=O)N(c1ccc2oc(=O)sc2c1)S(=O)(=O)c1ccccc1	14µM*	4.4	-15	?	-3.4%	13	-13
36	O=S1(=O)[C@H]2C[C@@H]3C=C[C@@]2(CN1Cc1ccc(Cl)cc1)O3	7%	0.9	1	38	-0.1%	13	35
37	C/C(N)=C(/C#N)C(=O)CSc1ccc2c(c1)OCCO2	1%	-3.2	7	4	-0.7%	-11	9
38	O=C(NCc1ccc2c(c1)OCO2)C1CCCN(S(=O)(=O)c2cccnc2)C1 (stereo unspecified)	-5%	-3.1	-1	-8	-1.3%	8	2
39	O=C(CSc1ccc(Br)cc1)N1CCN(C(=O)c2ccco2)CC1	3%	-0.9	-3	-3	-0.7%	-1	-4
40	Cc1ccc(C(=O)N/C(=C\c2cccs2)C(=O)N2CCCCCC2)cc1	4%	-2.9	4	-6	0.7%	-5	8
41	CCN1C[C@@H]2[C@@H]3C(=O)N(C)C(=O)[C@@H]3[C@](C)(C1=O)N2C(=O)c1ccc(F)cc1	.	-2.9	-2	7	0.5%	.	5
42	Cc1ccc(NC(=O)COC(=O)Cc2ccsc2)c(C)c1	12%	-1.3	2	10	1.2%	4	-2
43	Fc1ccc(NC(=S)N2CCCCC2)cc1	-29%	0.9	-17	6	-1.1%	12	-5
44	COC(=O)N(C)C[C@@H]1OCc2cn(nn2)CCCC(=O)N([C@H](C)CO)C[C@H]1C	.	-6.9	-5	-23	5.2%	.	10
45	NC(=O)c1ccc(=O)n(C2OC(CO)C(O)C2O)c1 (stereo unspecified)	.	-2.1	2	-2	-7.0%	.	-4

Next structures follow.
nr	smiles	Sfp inh	D2 ag	D2 potentiator	CtBP-E1A inh
49	O=C(NC(=S)Nc1ccccc1F)c1ccc(Br)o1	1%	-6.1	-9	.
50	Cc1c(C(=O)OCC(=O)NCc2ccc3c(c2)OCO3)cccc1[N+](=O)[O-]	-17%	-0.1	-19	5
51	CCCC(CC)Sc1nc2c([nH]1)c(=S)n(C)c(=O)n2C (stereo unspecified)	.	-7.8	-16	1
52	C[C@@H]1CN([C@H](C)CO)C(=O)c2cc(Br)cnc2O[C@H]1CN(C)C(=O)Nc1ccc2c(c1)OCO2	.	0.2	5	22

nr	PINK1 modulator	TRPV1 PAM	Six1-Eya2 inh
49	4.9%	-7	0
50	2.4%	7	4
51	6.5%	.	-5
52	0.4%	.	22

Source: PubChem BioAssay
